Sa growth 42C – S. aureus growth inhibition at 42 and 30 °C, primary screen, LtaS inhibitor project, RN4220, two temperatures; AID 720641, 2013; 0.53% of 170,000 active; OD600, 20 h, 42 °C; active compounds read low; relative growth, % (no concentration beside the values);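 active means growth at 42 °C up to 50% and 20 or more points under that at 30 °C, or under 10% at both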;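 further: 300 nL library stock went into each well; scaled to the means of positive and negative controls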
HCMV NEC inh – inhibitors of HCMV UL50-UL53 interaction, biochemical, HTRF. HCMV UL50-UL53 nuclear egress complex (human cytomegalovirus). normalized percent inhibition. inhibition, % (no concentration beside the values). 0.15% of 190,000 active. AID 1918969, 2023;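 active means both replicates at 50% or more, plus weaker picks with an unusually low signal ratio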;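 further: stock transfer was 100 nL into about 20 µL; 0% = negative control wells and 100% = wells with untagged competitor protein; inactives centre near -12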
GIV Gai3 FP – inhibitors of GIV peptide binding to Galpha-i3, primary screen, biochemical, fluorescence polarization, FITC-GIV GBA peptide, rat Galphai3 | Guanine nucleotide-binding protein G(i) subunit alpha-3 (Rattus norvegicus), P08753 | 90 min; active compounds read low; scaled: aluminum fluoride 0%, vehicle 100% | percent of control (FP), % (test concentration not listed) | 0.42% of 210,000 active | AID 1224905, 2016;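 active means replicate mean at 85% of control or lower, very high polarization wells dropped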;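 further: lower values mean more displacement of the GIV peptide from Galpha-i3; wells of about 15 µL received 100 nL stock; the first replicate is given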
Target sequence (P08753 whole entry, looked up): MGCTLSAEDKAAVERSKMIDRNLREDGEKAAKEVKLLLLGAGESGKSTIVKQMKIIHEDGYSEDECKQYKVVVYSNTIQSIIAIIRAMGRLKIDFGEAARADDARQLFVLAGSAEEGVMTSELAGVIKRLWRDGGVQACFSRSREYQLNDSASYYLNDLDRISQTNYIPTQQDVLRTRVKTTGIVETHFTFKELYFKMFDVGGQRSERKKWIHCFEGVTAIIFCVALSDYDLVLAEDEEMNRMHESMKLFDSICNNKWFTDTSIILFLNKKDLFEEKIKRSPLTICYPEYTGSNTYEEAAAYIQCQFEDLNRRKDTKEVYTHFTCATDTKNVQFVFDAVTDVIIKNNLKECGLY
Sa growth 42C second temp – recorded beside Sa growth 42C, whose call it bears; relative growth, %; measured here: growth at 30 °C;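 optical density after 20 h as mean of two plates; 100% = untreated growth and lower means inhibition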
Starred values were filed as active, the others as inactive; x = no result given; & = joins results of further samples.

#1 COc1nc(-c2ccc(Cl)cc2Cl)nc2ccccc12
#2 O=C(NCCCO)c1nn(-c2ccc(Cl)cc2)nc1CO
#3 CCOc1ccc(NC(=O)N2CCN(S(=O)(=O)c3ccc4c(ccn4C)c3)CC2)cc1
#4 N#CCCn1cc(/C=N/n2c(=O)[nH]c3ccccc3c2=O)c(-c2ccc(F)cc2)n1
#5 N#Cc1ccc(Oc2ccccc2)nc1
#6 CCc1cccc(C)c1NC(=O)CSc1ncnc2nc(N3CCC(C)CC3)sc12
#7 COC(=O)C1C2C=CC3(CN(Cc4ccco4)C(=O)C13)O2 (configuration not stated)
#8 CC1(C)CC(NC2CC(C)(C)NC(C)(C)C2)CC(C)(C)N1

entry no.	1	2	3	4	5	6	7	8
HCMV NEC inh	-1	-12	x	-21	2	-29	-4	-27
Sa growth 42C	110	104	92	79	104	x	115	107
GIV Gai3 FP	x	99	98	x	98	101	96	99
Sa growth 42C second temp	85	90	99	99	100	x	94	86

#9 Cc1onc(-c2ccccc2)c1C(=O)NCc1ccc2c(c1)OCO2
#10 COc1cccc(NC(=O)CSc2nc3c(sc4ccccc43)c(=O)n2CCN(C)C)c1
#11 CCc1ccc(C(=O)c2cn(CC(=O)Nc3ccc4c(c3)OCCO4)c3ccc(C)cc3c2=O)cc1
#12 COC(=O)c1cc2oc3ccccc3c2n1CC(=O)Nc1cc(C)cc(C)c1
#13 Cc1nc2ccccc2[nH]c1=S
#14 Brc1ccc2c(ccc[n+]2C/C=C/c2ccccc2)c1
#15 CCc1ccc(-c2[nH]nc3c2C(c2ccc(C)cc2)C2=C(CC(C)(C)CC2=O)N3)cc1 (configuration not stated)
#16 CN(CC(=O)Nc1cccc(C(F)(F)F)c1)S(=O)(=O)c1ccc2[nH]c3c(c2c1)CCCC3

entry no.	9	10	11	12	13	14	15	16
HCMV NEC inh	x	1	-8	-10	-58	x	8	x
Sa growth 42C	115	112	87	104	35	99	x	100
GIV Gai3 FP	106	107&104	102	94	107	99	102	101
Sa growth 42C second temp	91	104	97	77	38	74	x	83

7 of the compounds above, as tab-separated lines.
#	Structure	HCMV NEC inh	Sa growth 42C	GIV Gai3 FP	Sa growth 42C second temp
14	Brc1ccc2c(ccc[n+]2C/C=C/c2ccccc2)c1	x	99	99	74
11	CCc1ccc(C(=O)c2cn(CC(=O)Nc3ccc4c(c3)OCCO4)c3ccc(C)cc3c2=O)cc1	-8	87	102	97
15	CCc1ccc(-c2[nH]nc3c2C(c2ccc(C)cc2)C2=C(CC(C)(C)CC2=O)N3)cc1 (configuration not stated)	8	x	102	x
10	COc1cccc(NC(=O)CSc2nc3c(sc4ccccc43)c(=O)n2CCN(C)C)c1	1	112	107&104	104
9	Cc1onc(-c2ccccc2)c1C(=O)NCc1ccc2c(c1)OCO2	x	115	106	91
16	CN(CC(=O)Nc1cccc(C(F)(F)F)c1)S(=O)(=O)c1ccc2[nH]c3c(c2c1)CCCC3	x	100	101	83
12	COC(=O)c1cc2oc3ccccc3c2n1CC(=O)Nc1cc(C)cc(C)c1	-10	104	94	77

Next part
#17 CCOc1ccccc1NCc1nnc2n1CCCCC2
#18 CCN(Cc1ccccc1)C(=O)c1cc2c(=O)oc3ccc(C)cc3c2s1
#19 Cc1noc(C)c1S(=O)(=O)N1CCC(C(=O)N2CCN(c3cccc(C(F)(F)F)c3)CC2)CC1
#20 CCSC1=C(C#N)C(c2ccc(C(C)C)cc2)C2=C(CCCC2=O)N1 (configuration not stated)
#21 CC(=O)Nc1ccc(NC(=O)C2CC(=O)N(Cc3ccco3)C2)cc1 (configuration not stated)
#22 Cc1cc(C(=O)CSC2=C(C#N)C(C)(C)C(C#N)C(=O)N2)c(C)n1-c1ccccc1 (configuration not stated)
#23 CCCn1c2ccccc2c2cnn(CC(=O)NC(CCSC)C(=O)OC)c(=O)c21 (configuration not stated)
#24 C=CCn1c(SC(C#N)Cc2ccccc2)nnc1C1CCCCC1 (configuration not stated)

entry no.	17	18	19	20	21	22	23	24
HCMV NEC inh	x	-35	-12	x	3	-29	x	4
Sa growth 42C	82	109	112	96	97	103	95	115
GIV Gai3 FP	97	104	105	99	x	x	103	x
Sa growth 42C second temp	90	85	90	55	96	85	106	93

#25 COc1ccc(Cc2nc3ccccc3n2C(C)C)cc1
#26 Cn1c(SCC(=O)c2ccccc2)nnc1C(F)(F)F
#27 C=CCSc1nnc2c(n1)[nH]c1ccccc12
#28 COc1cccc(C(=O)NC(c2ccco2)c2c(O)ccc3ccccc23)c1 (configuration not stated)
#29 Cc1nn(C(=O)COc2ccccc2Br)c(C)c1Sc1ccccc1
#30 COc1ccc(CCNS(=O)(=O)c2ccc3[nH]c4c(c3c2)CCCC4)cc1OC
#31 CC(C)c1cc(C(=O)Nc2ccc(-c3nnc4n3CCCCC4)cc2)c2cnn(C(C)C)c2n1
#32 Cc1ccc(NC(=O)CCC(=O)c2cccs2)cc1

entry no.	25	26	27	28	29	30	31	32
HCMV NEC inh	1	-16	-34	-7	-44	x	-16	-10
Sa growth 42C	93	98	89	114	99	96	90	111
GIV Gai3 FP	101	100	103	102	105	97	x	111
Sa growth 42C second temp	81	85	83	100	99	76	85	93

2 of the compounds above, with two lines to a compound.
The line under a structure holds: HCMV NEC inh, Sa growth 42C, GIV Gai3 FP, Sa growth 42C second temp
6) CCc1cccc(C)c1NC(=O)CSc1ncnc2nc(N3CCC(C)CC3)sc12
    -29, x, 101, x
7) COC(=O)C1C2C=CC3(CN(Cc4ccco4)C(=O)C13)O2 (configuration not stated)
    -4, 115, 96, 94

Going on with the list.
#33 NC(=O)Cn1c(-c2nonc2N)nc2ccccc21
#34 O=C(c1cc(-c2ccc(Cl)cc2)nc2ccccc12)N1CCCCC1
#35 CCOC(=O)c1cc(NC(=O)N2CCCCC2)c(C)nc1C
#36 COC(=O)C1=NN(C(=O)c2cccc(OC)c2)C(C)(O)C1 (configuration not stated)
#37 Cc1nc(-c2ccc(F)cc2)sc1CCNS(=O)(=O)c1ccc2c(c1)CCCC2
#38 CC1Cn2cc(C(=O)Nc3ccccc3C(F)(F)F)c(=O)c3c(Cl)ccc(c32)O1 (configuration not stated)
#39 CC(=O)n1nc(C)c(Sc2nnnn2-c2ccccc2)c1C
#40 O=C(c1ccc2nc[nH]c2c1)N1CCN(S(=O)(=O)c2ccccc2C(F)(F)F)CC1

entry no.	33	34	35	36	37	38	39	40
HCMV NEC inh	-21	-13	-31	-10	14	x	-44	-19
Sa growth 42C	75	x	x	80	x	105	89	98
GIV Gai3 FP	118	105	100	108	105	109	107	x
Sa growth 42C second temp	78	x	x	114	x	101	86	97

Five of the entries above in order of their number in Sa growth 42C second temp, low to high:
nr | canonical_smiles | GIV Gai3 FP | Sa growth 42C second temp
33 | NC(=O)Cn1c(-c2nonc2N)nc2ccccc21 | 118 | 78
39 | CC(=O)n1nc(C)c(Sc2nnnn2-c2ccccc2)c1C | 107 | 86
40 | O=C(c1ccc2nc[nH]c2c1)N1CCN(S(=O)(=O)c2ccccc2C(F)(F)F)CC1 | x | 97
38 | CC1Cn2cc(C(=O)Nc3ccccc3C(F)(F)F)c(=O)c3c(Cl)ccc(c32)O1 (configuration not stated) | 109 | 101
36 | COC(=O)C1=NN(C(=O)c2cccc(OC)c2)C(C)(O)C1 (configuration not stated) | 108 | 114

(list continues)
#41 O=c1cc(-c2ccc(O)cc2)oc2ccccc12
#42 Cc1ccc(C)c(NC(=O)COC(=O)c2ccc3c(=O)n4c(nc3c2)CCCCC4)c1
#43 Cc1ccc(-c2noc(CCC(=O)Nc3nnc(C(C)C)s3)n2)c(=O)n1C(C)C
#44 CC(C)Sc1oc(-c2cccs2)nc1S(=O)(=O)c1ccc(Cl)cc1
#45 CC(O)CNc1nc2ccccc2[nH]1 (configuration not stated)
#46 COc1cccc(NC(=O)CSc2cc(C)[nH]c(=O)n2)c1
#47 Cc1nc2ccccc2nc1OCC(=O)c1ccc(Cl)cc1
#48 CC(C)(C)OC(=O)N1CCN(CCNC(=O)c2ccc(Cl)cc2)CC1

entry no.	41	42	43	44	45	46	47	48
HCMV NEC inh	-17	-33	-31	-8	-11	x	-27	-11
Sa growth 42C	93	98	x	87	90	104	93	117
GIV Gai3 FP	102	x	107	108	x	103	106	103
Sa growth 42C second temp	84	87	x	89	95	90	78	93

#49 Cc1csc(Cc2nc(-c3ccc(O)cc3)no2)n1
#50 Cc1cc(NC(=O)CSc2nccn2C)n(-c2ccccc2)n1
#51 O=C(CN1C(=O)COc2ccc(S(=O)(=O)N3CCCCCC3)cc21)N1CCN(c2ccc(F)cc2)CC1
#52 COc1cc(NC(=O)CN2C(=O)CN(C)C(=O)c3ccccc32)cc(OC)c1OC
#53 CNS(=O)(=O)c1cc(CN2C(=O)C3CCCCC3C2=O)ccc1C (configuration not stated)
#54 O=C(c1ccccc1Cl)N(Cc1ccco1)Cc1cc2cc3c(cc2nc1Cl)OCO3
#55 O=C(CN1CCn2nc(-c3ccccc3)cc2C1=O)NCc1cccnc1
#56 Cc1cc2c(cc1S(=O)(=O)N1CCCC(C(=O)N(C)Cc3ccccc3)C1)OCC(=O)N2 (configuration not stated)

entry no.	49	50	51	52	53	54	55	56
HCMV NEC inh	-35	40	-6	x	2	-1	-18	-7
Sa growth 42C	47	100	93	108	x	92	x	x
GIV Gai3 FP	x	105	98	111	93	107	98	96
Sa growth 42C second temp	29	89	67	98	x	86	x	x

#57 CC(C)(C)S(=O)(=O)c1cccc2ccccc12
#58 O=C(NC1CCCCC1)NC1CC2CCC(C1)N2C(=O)NCc1ccccc1 (configuration not stated)
#59 O=C(Nc1cccc(-c2ncon2)c1)c1cccs1
#60 COc1ccc(CNC(=O)c2ccc3c(c2)N(Cc2ccccc2C)C(=O)c2ccccc2S3=O)cc1 (configuration not stated)
#61 COc1cc2c(cc1OC)C(C(=O)O)C(c1cccc(OC)c1OC)N(C)C2=O (configuration not stated)
#62 CN1CCN(Nc2nc3c(c(=O)[nH]c(=O)n3C)n2Cc2ccc(F)cc2)CC1
#63 Nc1c(-c2ccccc2)n[nH]c1-c1ccccc1
#64 Oc1cccc(CN2CCN(C/C=C/c3ccccc3)CC2)c1

entry no.	57	58	59	60	61	62	63	64
HCMV NEC inh	-5	-9	-6	x	-17	-23	-8	-6
Sa growth 42C	93	97	103	119	x	80	96	107
GIV Gai3 FP	94	102	96	106	103	106	x	97
Sa growth 42C second temp	114	86	88	84	x	80	76	88

#65 NC(=O)COc1ccccc1OCC(N)=O
#66 COc1ccc(NC(=O)CC(C)n2nc(C)cc2C)cc1Cl (configuration not stated)
#67 COCC(=O)Nc1ccccc1-c1ccccc1
#68 Cc1cc(-n2c(C)cc(C(=O)CSc3n[nH]c(=O)n3Cc3ccccc3)c2C)no1
#69 Cc1ccc(-n2nc(C)c3c(=O)[nH]c(C(F)(F)F)nc32)cc1
#70 COC(=O)CSc1nc(C)c(Br)c(=O)[nH]1
#71 CC1=C(c2ccc(C)c(C)c2)S(=O)(=O)N=C1N1CCC(C(=O)Nc2ccc(Cl)cc2)CC1
#72 COc1ccc(-c2[nH]ncc2CN2CCN(C(=O)c3[nH]nc4c3CCc3cc(OC)ccc3-4)CC2)cc1

entry no.	65	66	67	68	69	70	71	72
HCMV NEC inh	-5	x	13	-26	4	x	x	-14
Sa growth 42C	96	88	110	79	53	97	137	x
GIV Gai3 FP	x	96	x	x	x	104	102	106
Sa growth 42C second temp	96	88	96	85	51	89	95	x

#73 CCN(CC)c1ncc(C(=O)O)cc1NS(=O)(=O)c1cc(C)cc(C)c1
#74 CC(=O)Nc1ccc(NC(=O)c2cc(CN3CCCC3)on2)cc1
#75 CCCc1c(C(=O)Nc2ccc(Cl)cc2)cnn1C
#76 C=CCNc1nc(C)nc(OC)n1
#77 O=C(NC(=NCc1ccncc1)Nc1ccccc1)c1ccccc1
#78 CCN(CC)CCNc1ncnc2sc3c(c12)CCCC3

entry no.	73	74	75	76	77	78
HCMV NEC inh	-32	x	-8	x	-10	-26
Sa growth 42C	x	106	100	93	x	93
GIV Gai3 FP	80*	102	99	99	99	104
Sa growth 42C second temp	x	88	89	89	x	87

Screens: PubChem, ICCB-Longwood Screening Facility, Harvard Medical School
